HPGD block: qHTS Assay for Inhibitors of HPGD (15-Hydroxyprostaglandin Dehydrogenase); 15-hydroxyprostaglandin dehydrogenase [NAD(+)] (Homo sapiens), P15428; purified HPGD, NADH fluorescence kinetic, PGE2 substrate; Potency, µM, for inactives: at the highest dose activity change, negative = inhibition, hits mostly inhibitors; 150,000 tested, 4.3% active; AID 894, 2007; active = well fitted inhibition curve with a large enough effect (not every such curve was filed as active); inconclusive = small, poorly fitted or top-dose-only effect, or another doubt; inactive = no such curve, though single readings can be large or run the other way;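 note: top concentration of the series not given in the record; plate controls included wells without enzyme; inactives centre near -10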
Target sequence (P15428 whole entry, looked up): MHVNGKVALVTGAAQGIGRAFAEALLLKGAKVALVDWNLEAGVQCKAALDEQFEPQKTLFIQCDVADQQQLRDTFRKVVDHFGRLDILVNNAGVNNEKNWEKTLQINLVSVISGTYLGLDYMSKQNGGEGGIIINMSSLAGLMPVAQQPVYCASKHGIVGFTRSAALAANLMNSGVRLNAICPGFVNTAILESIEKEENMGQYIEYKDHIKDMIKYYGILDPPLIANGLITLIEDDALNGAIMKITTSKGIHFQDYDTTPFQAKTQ
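NADH formation kinetics: reaction with 30 uM PGE2 and 1 mM NAD+ (final), 20 nM enzyme, Tris-HCl pH 8 with Tween 20, after 15 min compound preincubation at room temperature. Fluorescence change, last versus first of five reads.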
* = called active by the depositor; ? = inconclusive; & = joins results of further samples. % is set by controls: 0 for no effect and ±100 for the full control effect; potency is the fitted concentration of half-maximal effect.

Compound | HPGD block
CN(C)c1ccc(-c2cc(-n3ccnc3)ncn2)cc1 | ?
COC(=O)c1ccccc1NC(=O)CSc1n[nH]c(CC(C)C)n1 | -19.2%
O=C(NCCN1CCOCC1)c1cc2n(n1)C(C(F)(F)F)CC(c1ccc(F)cc1)N2 (stereo not given) | -9.6%
CCCCSc1nc2ccccc2n1CC(=O)O | -2.6%
Nc1ccc2c(c1)sc1ccccc12 | ?
CC(C)CNc1nc2ncnc(N)c2[nH]1 | -4.8%
O=C(c1ccc2ncsc2c1)N1CCN(c2ccc(O)cc2)CC1 | -1.1%
COc1ccc(OC)c(C2NC(=O)NC(C)=C2C(=O)Nc2ccc(C)cc2C)c1 (stereo not given) | -12.8%
CNC(=O)C(=O)NCCc1ccc(Cl)cc1 | 1.6%
CCNC(=O)CC1C(=O)N(c2ccccc2)C(=O)N1CCc1ccc(OC)c(OC)c1 (stereo not given) | -18.0%
CC(C)C(NC(=O)C12CC3CC(CC(C3)C1)C2)C(=O)N/N=C/C1=C(N2CCOCC2)C(=C\c2ccc([N+](=O)[O-])cc2)/CC1 (stereo not given) | -23.8%
c1nc(N2CCCCC2)c2[nH]cnc2n1 | -11.3%
Cc1c(Cl)ccc2c1NC(=O)C21NC(CCC(N)=O)[C@H]2C(=O)N(c3ccc(Cl)cc3)C(=O)[C@H]21 (stereo not given in full) | -25.1%
O=C(c1ccc(Cl)cc1)c1nnc(-c2ccncc2)o1 | -24.2%
CC(C)n1c(O)c(/C=C2\C=Nc3ccccc32)sc1=Nc1ccccc1 | -9.2%
C=CCn1c(SCC(=O)O)nnc1-c1ccccc1 | -9.9%
COc1ccc(C2c3c(oc4ccccc4c3=O)C(=O)N2Cc2ccncc2)cc1 (stereo not given) | -7.5%
Cc1csc(SCc2nc3sc4c(c3c(=O)[nH]2)CCC4)n1 | -4.4%
O=C(/C=C/c1cc([N+](=O)[O-])ccc1OC(F)F)Nc1cccc(OC(F)F)c1 | -5.8%
O=C(O)CCc1ccc(-c2ccccc2)n1CC1CCCO1 (stereo not given) | ?
O=C(Nc1c(F)c(F)c(F)c(F)c1F)NC1CCCCC1 | -14.1%
COc1ccc(/C=N/n2c(=S)n(C)c3ccccc32)cc1OC | -24.3%
Cc1cccc2nc(CSc3nnnn3-c3ccccc3)cn12 | 1.8%
O=C(NCCN1CCOCC1)N1CCOCC1 | -10.0%
CCc1ccc(C(=O)COC(=O)c2cccc(N3C(=O)c4c(C)nc5ccccc5c4C3=O)c2)cc1 | -12.1%
CCN(CC)S(=O)(=O)c1ccc(OC)nc1 | -11.3%
COc1coc(/C=C/C(=O)O)cc1=O | -25.8%
CC1(C)Cc2c(C#N)c(N3CCCC3)nc(-c3ccco3)c2CO1 | ?
CN=C1S/C(=C\c2ccc(N3CCOCC3)cc2C)C(=O)N1C | -15.6%
O=C(COC(=O)C1CC(O)CN1S(=O)(=O)c1ccc(Cl)cc1)c1ccccc1 (stereo not given) | -17.8%
COc1ccc(N2CCN(CC(O)COc3ccc4c(c3)CCC4)CC2)cc1 (stereo not given) | -10.6%
CCOC(=O)Cn1c(=N)n(CCOc2cccc(C)c2)c2ccccc21 | -0.9%
CCCOc1ccc(C(=O)c2nc3c(n2O)CCCCC3)cc1 | ?
O=C(CSc1nnc(COc2cccc3cccnc23)o1)N1CCN(C(=O)c2ccco2)CC1 | -14.7%
COc1ccc(-c2nc(NC(=O)CSc3nnc(C)s3)ns2)cc1 | ?
O=C1CC(c2cccc(F)c2)C2=C(CCCC2=O)N1 (stereo not given) | -6.9%

Given with the structure last: 3 of the compounds above.
HPGD block,SMILES
-0.9%,CCOC(=O)Cn1c(=N)n(CCOc2cccc(C)c2)c2ccccc21
?,CCCOc1ccc(C(=O)c2nc3c(n2O)CCCCC3)cc1
-14.7%,O=C(CSc1nnc(COc2cccc3cccnc23)o1)N1CCN(C(=O)c2ccco2)CC1

The results go on.
Compound | HPGD block
O=C(c1coc(=O)c2ccccc12)N1CCN(Cc2ccccc2)CC1 | -7.0%
CCN(CC)S(=O)(=O)c1ccc(-c2nnc(SCC(=O)Nc3ccc4c(c3)OCO4)o2)cc1 | -11.4%
CSC1=NCCN1C(=O)c1c(F)cccc1Cl | 3.9%
Cc1cnc(C(=O)Nc2ccc(N3CCN(C(=O)OC(C)(C)C)CC3)cc2)cn1 | -0.6%
O=C(C1CC1c1ccccc1)N1CCN(c2cccc(Cl)c2)CC1 (stereo not given) | -7.5%
N#C/C(=C\c1cn(CC(=O)N2CCCC2)c2ccccc12)C(=O)NCc1ccc2c(c1)OCO2 | ?
Cc1cccc(N2CCN(CC(=O)Nc3ccccc3[N+](=O)[O-])CC2)c1C | -10.0%
Cc1ccc(-c2cc(-c3ccccc3[N+](=O)[O-])[nH]n2)c(O)c1 | -27.8%
O=C(Nc1nccs1)c1ccc(S(=O)(=O)N2CCCCC2)cc1 | -8.0%
O=C(c1cn(-c2ccccc2)nc1-c1ccncc1)N1CCCCC1 | -19.5%
COc1ccc(OCCSc2nnc3sc4ccccc4n23)cc1 | -26.8%
CCOC(=O)Cc1[nH]nc2c1C(C1C=CCCC1)C(C#N)=C(N)O2 (stereo not given) | -4.9%
O=C(c1ccccc1)c1c[nH]cc1-c1ccccc1 | -18.7%
COc1ccc(C(=O)Nc2nc(C)c(C(=O)N(C)C)s2)cc1OC | -12.0%
Cn1cccc1C(=O)N1CCC2(CC1)CN(c1cccc(-c3ccccc3)c1)C2 | ?
COc1ccc(/C=N/Nc2cc(=O)n(C)c(=O)n2C)cc1OC | -12.0%
COc1ccc(N(C(=O)Cn2nnc3ccccc32)C(C(=O)NCc2ccco2)c2cccnc2)cc1 (stereo not given) | -9.7%
COc1ccc(N(C(=O)CCl)C(C(=O)NCCc2ccccc2)c2cccs2)cc1 (stereo not given) | -15.3%
CCOc1cnn(Cc2ccccc2)c(=O)c1SCc1ccccc1 | -2.9%
C=C(C)CSc1nnc(-c2cccc(Cl)c2)n1N | -24.1%
COc1ccc(C(=O)Nn2cnc3ccccc3c2=O)c(OC)c1 | -14.0%
CN(C)S(=O)(=O)Nc1ccccn1 | -5.9%
CC1CC2C3CCC4=CC(=O)C=C[C@@]4(C)[C@]3(F)C(O)C[C@]2(C)[C@]1(O)C(=O)CO (stereo not given in full) | -13.1%&1.0%
O=C(NCCCN1CCN(c2ccccc2F)CC1)C1CCN(S(=O)(=O)c2cccs2)CC1 | 0.4%
N#Cc1c(C(F)(F)F)cc(-c2ccccc2)nc1SCCN1CCOCC1 | -13.2%
CSCCC(NC(=O)C12CC3CC(CC(C3)C1)C2)C(=O)OCC(=O)c1ccc(Cl)cc1 (stereo not given) | -7.0%
COCCNC(=S)N/N=C(\C)c1ccc(OC)cc1 | -19.2%
NC(=O)CSC1=Nc2ccccc2C2=NC(CCC(=O)NCc3ccc(F)cc3)C(=O)N12 (stereo not given) | ?
CCC(C)(C)n1nnnc1C(c1cccc(C#N)c1)N1CCN(c2cc(C)ccc2C)CC1 (stereo not given) | -4.6%
C=CC[n+]1c(-c2ccc(C)cc2)csc1NNC(=O)Nc1ccccc1 | -10.8%
CCSc1ccccc1C(=O)NCc1ccc2c(c1)OCO2 | 1.41µM*
Cc1nn(-c2ccccc2)c2sc(C(=O)NCCN3CCOCC3)cc12 | ?
Cc1ccc2nc(NC(=O)CN(C)S(=O)(=O)c3ccc(Br)s3)sc2c1 | 3.5%
Cc1ccc(NC(=O)c2sc(Cl)nc2-c2ccccc2)cc1C | -2.2%
O=C(Nc1ccc(N2CCCC2)c(Cl)c1)c1ccco1 | -15.9%
CCCS(=O)(=O)N1CCN(CC2CC3C=CC2C3)CC1 (stereo not given) | -6.1%
COc1ccc2nc(SCC(=O)NC(C)(C)C)[nH]c2c1 | -4.6%
CSc1ncccc1C(=O)OCC(=O)c1cc2ccccc2o1 | -11.8%
CCn1c(=O)c(C)nn2c3ccccc3nc12 | -5.0%
CNC(=O)CN(c1ccc(C(C)C)cc1)S(C)(=O)=O | -3.5%
N[C@H](C(=O)O)c1cc(O)cc(O)c1 | -18.8%&-10.7%&-19.2%
COc1ccc(C(=O)c2ccc(N(C)C)cc2)c(OC)c1 | -10.8%
CC(c1ccccc1F)n1cc(C(=O)NCCc2ccco2)nn1 (stereo not given) | -9.7%
CCOC(=O)c1csc(NC(=O)CSc2nnnn2-c2ccc(OC)cc2)n1 | -3.2%
CC(=O)Nc1ccc(S(=O)(=O)N2CCSC2C(=O)O)cc1 (stereo not given) | -14.1%
CC(C)COC(=O)c1cc(=O)[nH]c2ccccc12 | -18.9%
O=C(COc1ccc(-c2nnco2)cc1)N1CCN(S(=O)(=O)c2ccc3ccccc3c2)CC1 | -16.3%
COc1nc(C)ccc1-c1noc(-c2ccco2)n1 | -6.3%
O=C(O)c1ccc(Nc2ccnc3cc(Cl)ccc23)cc1O | -27.2%
CC1=Nn2c(nnc2-c2ccco2)SC1 | 31.6µM*
C=CCN1c2ccccc2[C@]23C[C@@H](C(=O)OC)N(S(=O)(=O)c4ccc(Br)cc4)C2=NC(C(=O)OC)=C(C(=O)OC)[C@H]13 | -5.9%
O=C(NCc1ccccn1)C1CCN(S(=O)(=O)N2CCC3(CC2)OCCO3)CC1 | -16.1%
O=C(c1cccc(Br)c1)N1CCN(C(=O)N2CCCCC2)CC1 | -0.8%
C=CCN1C(=O)S/C(=C/c2ccsc2)C1=O | -24.1%
CCOC(=O)C1CCCN(c2c(N3CCN(C4CCCCC4)CC3)c(=O)c2=O)C1 (stereo not given) | -4.0%
COc1ccc(N2CCN(c3cc(=O)n(Cc4ccc(F)cc4)c(=O)[nH]3)CC2)cc1 | -17.4%
Cc1ccc(NC(=O)CSc2n[nH]c(C)c2[N+](=O)[O-])cc1C | -15.4%
Cn1cccc1Cc1nnc(SCC(=O)NCC2CCCO2)n1-c1ccc(F)cc1 (stereo not given) | 3.1%
C/C(=N\NC(=O)CSCc1ccc(Cl)cc1)c1ccc(NC(=O)c2ccccc2)cc1 | -13.8%
CCCS(=O)(=O)N1CCC(C(=O)NCc2ccccc2Cl)CC1 | -8.4%

(continued)
Compound | HPGD block
COC(=O)c1[nH]c2c(c1C)C(=O)CC(c1cccs1)C2 (stereo not given) | -7.4%
COC(=O)c1cc2occc2n1Cc1c(F)cccc1Cl | -27.6%
COCCCNC(=O)CSc1nc2ccccc2c(=O)n1CCCC(=O)NCC1CCCO1 (stereo not given) | -9.8%
c1ccc(-c2c(-c3ccccc3)n(Cc3ccco3)c3ncnc(NCCCn4ccnc4)c23)cc1 | ?
COn1c(-c2ccc(Cl)cc2)nc2ccc(Cl)cc21 | 24.1%
Cc1ccc(C)c(N2CC(=O)N(c3cc(C)ccc3C)CC2=O)c1 | -14.4%
O=C(Cc1ccc([N+](=O)[O-])cc1)NCc1ccccc1Cl | -4.6%
Cc1ccc(N=C2C(=S)N(c3ccc(C)cc3)C(=N)N2/N=C/c2ccc(Cl)cc2)cc1 | 35.5µM*
O=C(CCn1nnc2ccccc21)Nc1nnc(Cc2ccccc2)s1 | 31.6µM*
Fc1ccc(NC(=S)NCc2ccccn2)cc1 | -5.0%
Cc1cc(C)c2c(-n3cccc3)nn(C)c2n1 | -16.2%
CCN(CC)S(=O)(=O)c1ccc(N2CCCC2)c(C(=O)OCC(=O)/C(C#N)=C(\C)N)c1 | -16.3%
COc1ccc(CCN2CNc3c(c(=O)n(C)c(=O)n3C)C2)cc1OC | -10.4%
Cc1c(CN(C)C(=O)c2nn(C)cc2[N+](=O)[O-])cnn1C | 2.3%
Cc1ccnc(N2C(=O)c3ccccc3C2O)c1 (stereo not given) | -4.1%
CCOC(=O)C1(CC)NC(c2ccco2)C2C(=O)N(C)C(=O)C21 (stereo not given) | 0.2%
CNC(=O)NC(=O)COC(=O)CCCOc1ccc(OC)cc1 | -8.4%
COC(=O)c1sccc1NC(=S)N1CC(C)CC(C)C1 (stereo not given) | ?
CCOC(=O)c1ccc(N=c2sc(C(=O)OC)cc(=O)n2Cc2ccc3c(c2)OCO3)cc1 | -15.9%
NCC1O[C@H](O[C@@H]2C(O)[C@H](O[C@H]3OC(CO)C(O)C(N)C3O)[C@@H](N)C[C@H]2N)[C@@H](N)CC1O (stereo not given in full) | -9.5%
CCC(C(=O)NC1CCCCC1)N(CC1CCCO1)C(=O)CNS(=O)(=O)c1ccc(OC)cc1 (stereo not given) | -5.5%
COc1ccc(CCC(=O)Nc2cc(Cl)ccc2OC)cc1 | -8.2%
COc1ccc(NC(=O)COC(=O)CNC(=O)c2cc(OC)c(OC)c(OC)c2)cc1 | -19.7%
CCOC(=O)C1CCCN(C(=O)c2cc3c(C)nc4ccccc4c3o2)C1 (stereo not given) | -10.0%
CCOc1ccc(Nc2cc(=O)oc3ccccc23)cc1 | ?
CCN(CC(=O)NCc1cccs1)S(=O)(=O)c1ccc(C(C)C)cc1 | -4.9%
COCCCn1c(SCC(=O)N(C)C)nnc1-c1ccccc1 | 0.1%
CCOc1ccc(S(=O)(=O)Nc2nc3ccccc3nc2-n2ccc(=NC(=O)c3cccs3)cc2)cc1 | -8.5%
O=C(NC1C(=O)NNC1c1ccccc1)c1ccccc1 (stereo not given) | 2.4%
O=C(CNC1CCCCCC1)Nc1ccccc1N1CCCCC1 | -10.0%
Cc1ccc(CNS(=O)(=O)c2cn(C)cn2)cc1 | -3.5%
Cc1cc(C)c2c(=O)[nH]c(SCC(=O)N3CCCCC3)nc2n1 | ?
Cc1cccc(NC(=O)Cn2cccc2)c1 | -5.0%

An excerpt; rates above refer to the full screens.
